Compound activity as filed in PubChem BioAssay.
VDR inh = blocks the human vitamin D receptor | P11473 | VDR-SRC2-3 peptide fluorescence polarization, 2 h | Potency, µM, inactives show max response, negative = inhibition, most hits filed as inhibitors | actives 0.93% (n = 400,000); active means well fitted inhibition curve with a large enough effect; inconclusive means small, poorly fitted or top-dose-only effect, or another doubt; inactive means no such curve, though single readings can be large or run the other way; further: series mostly up to about 120 µM
Target sequence (P11473 whole entry, looked up): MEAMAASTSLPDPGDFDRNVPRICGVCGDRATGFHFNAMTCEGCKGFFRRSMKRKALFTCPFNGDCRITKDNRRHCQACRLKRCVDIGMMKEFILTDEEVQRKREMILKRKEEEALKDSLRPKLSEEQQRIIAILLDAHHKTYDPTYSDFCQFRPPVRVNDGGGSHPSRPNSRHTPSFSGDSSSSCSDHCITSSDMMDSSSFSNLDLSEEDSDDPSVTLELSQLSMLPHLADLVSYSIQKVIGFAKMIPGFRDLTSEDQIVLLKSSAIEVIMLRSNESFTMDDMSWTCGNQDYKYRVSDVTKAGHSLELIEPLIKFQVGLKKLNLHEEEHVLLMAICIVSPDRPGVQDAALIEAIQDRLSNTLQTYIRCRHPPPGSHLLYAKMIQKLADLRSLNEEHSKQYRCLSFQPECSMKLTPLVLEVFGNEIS
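After 23 nl compound addition and a short centrifugation, plates sat for 2 hours at ambient temperature; polarization of fluorescence then indicated loss of VDR binding to peptide SRC2-3.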
* marks the source's active call; other numbers are inactive results; ? = inconclusive. On the % scale 0 is the no-effect control and ±100 the full control effect; potency means the concentration at half of the fitted maximal effect. Some of the compounds tested; the hit share may differ from the screen's.

O=C(COC(=O)c1ccccc1F)Nc1ccc2c(c1)OCCO2
  VDR inh = 14%

CSc1ncc2c(n1)-c1cc(C)ccc1SC2
  VDR inh = 10%

C=CCNc1nc(C(=O)OCC(=O)Nc2ccc(S(N)(=O)=O)cc2)cs1
  VDR inh = -6%

Cc1cccc(C(=O)N(Cc2ccccc2F)C2CCS(=O)(=O)C2)c1 (stereo not given)
  VDR inh = 14%

COC(=O)c1cccc(NC(=O)Cn2nnc3ccccc32)c1
  VDR inh = 18%

CC(C)N(C(=O)[C@H]1C[C@H](CC(=O)NCc2ccco2)C(=O)N2CCc3c([nH]c4cc(CCC(=O)N(C)C)ccc34)[C@]12C)C(C)C
  VDR inh = 9%

CSc1nnc2c(n1)OC=Nc1ccc(Br)cc1-2
  VDR inh = -3%

Cc1ccc(NC(=O)n2ccc(-c3ccc(-n4ccnc4)cc3)n2)cc1
  VDR inh = 19%

CCOC(=O)c1csc(-c2snnc2C)n1
  VDR inh = -4%

COc1ccc(-c2ccc(N(C)C)cc2)cc1C1C2C=CCCC2(C)C(=O)N1Cc1ccccc1 (stereo not given)
  VDR inh = 5%

OCCC1CN(Cc2ccc(Oc3ncccn3)cc2)CCN1C1CCCC1 (stereo not given)
  VDR inh = 5%

CCc1nnc(NC(=O)C(C)Sc2ccccc2)s1 (stereo not given)
  VDR inh = 0%

Cn1c(=O)oc2cc(S(=O)(=O)NCc3ccccc3)ccc21
  VDR inh = -14%

Cc1ccc(CCNC(=O)C2CCN(S(=O)(=O)N3CCOCC3)CC2)cc1
  VDR inh = -6%

O=C1CN(c2nc(-c3ccccc3)c3cc(Cl)ccc3n2)c2ccccc2N1
  VDR inh = -2%

Reprinted from the part before: 2 compounds; new compounds follow.
Cc1ccc(CCNC(=O)C2CCN(S(=O)(=O)N3CCOCC3)CC2)cc1
  VDR inh = -6%

O=C1CN(c2nc(-c3ccccc3)c3cc(Cl)ccc3n2)c2ccccc2N1
  VDR inh = -2%

Cc1cc(=O)n(C)c(=O)n1CCCCCCOc1cccc([N+](=O)[O-])c1
  VDR inh = -2%

CCNC(=O)COC(=O)c1ccc(S(=O)(=O)N2CCCCCC2)cc1
  VDR inh = 5%

C/C(=N\NC(=O)CCn1nnc2ccccc21)c1ccco1
  VDR inh = -15%

O=C(NCC1CCCO1)C(c1ccncc1)N(Cc1cccs1)C(=O)CN1C(=O)c2ccccc2S1(=O)=O (stereo not given)
  VDR inh = -19%

CCn1c(SCC(=O)Nc2ccccc2-c2ccccc2)nnc1-c1ccoc1C
  VDR inh = -19%

O=C(Nc1ncnc2sc3c(c12)CCCCC3)c1ccc(F)cc1
  VDR inh = 2%

COCc1c(C(N)=O)nnn1-c1nonc1N
  VDR inh = -14%

Cn1c(SCC(=O)NCc2ccc3c(c2)OCO3)nc2c(c1=O)SCC2
  VDR inh = -9%

O=C(Cc1ccc(Cl)cc1)Nc1ccccc1Sc1ccccc1
  VDR inh = -10%

CCOc1ccc(OC(=O)c2ccc3c(=O)n4c(nc3c2)CCC4)cc1
  VDR inh = -10%

CC(=O)Nc1ccc(S(=O)(=O)Oc2ccc(Br)cc2C(=S)N2CCOCC2)cc1
  VDR inh = 4%

Cc1ccc(Oc2nsnc2N2CCOCC2)cc1
  VDR inh = -2%

COc1ccc2c(c1)CCc1c(C(=O)N3CCCC3)noc1-2
  VDR inh = 1%

CS(=O)(=O)N1CCCC(C(=O)NCCc2ccccc2)C1 (stereo not given)
  VDR inh = 0%

c1coc(CNCCCN2CCOCC2)c1
  VDR inh = 10%

O=C1N/C(=C/c2cccn2-c2ccccc2)C(=O)N1c1cccc(Cl)c1
  VDR inh = -4%

Cc1ccc(S(=O)(=O)NCC(=O)OCC(=O)N(C)C2CCS(=O)(=O)C2)cc1 (stereo not given)
  VDR inh = -9%

CCN(CC)S(=O)(=O)c1ccc2c(c1)N(CC(=O)Nc1c(C)cc(C)cc1C)C(=O)CS2
  VDR inh = -6%

Cc1c(Cl)cccc1Nc1nc(NCCO)c2ccccc2n1
  VDR inh = 5%

COC(=O)CC1Oc2ccc(F)cc2-n2cc(-c3ccc(C)cc3)nc21 (stereo not given)
  VDR inh = -3%

COCCN(C(=O)CCC(=O)Nc1nccs1)C(C(=O)NCCC(C)C)c1ccc(F)cc1 (stereo not given)
  VDR inh = 7%

CN1CCN(c2ncc3nc(-c4ccccc4)c(=O)n(Cc4cccs4)c3n2)CC1
  VDR inh = -8%

COc1cccc(/C=N/N2CCN(c3ccc(Cl)cc3)CC2)c1OC
  VDR inh = 5%

COc1ccc(S(=O)(=O)N2CCC(C(=O)NC3CC3)CC2)cc1
  VDR inh = 3%

Cc1ccccc1C(=O)NC1CC2CCC(C1)N2Cc1ccccc1 (stereo not given)
  VDR inh = 22%

Cc1cc(C)n(-c2nc3ccccc3c(=O)n2OCCOc2ccccc2)n1
  VDR inh = -13%

Cn1nnnc1SCC(=O)Nc1ccc(Br)cc1Br
  VDR inh = -1%

CC(=O)c1c(C)[nH]c(C(=O)OCc2cccc(C)c2)c1C
  VDR inh = -13%

Cc1ccc(Cl)cc1N1CCN(C(=O)c2ccc3c(c2)N(Cc2ccccc2F)C(=O)c2ccccc2S3=O)CC1 (stereo not given)
  VDR inh = -23%

CCOC(=O)Cc1csc(NC(=O)Nc2cccs2)n1
  VDR inh = -11%

C/C(=N\NC(=O)c1ccccc1NC(=O)c1ccc(Cl)cc1)c1ccncc1
  VDR inh = 9%

Cc1c(CC(=O)N[C@@H](C)C(=O)O)c(=O)oc2cc3oc4c(c3cc12)CCCC4
  VDR inh = 1%

CC(NC(=O)Cc1ccc(NC(=O)N2CCSc3ncccc32)cc1)c1ccccc1 (stereo not given)
  VDR inh = 4%

CCn1ncc(-c2cc(C(=O)O)no2)c1C
  VDR inh = -16%

Cc1cccc([N+](=O)[O-])c1C(=O)O
  VDR inh = 0%

CCN(c1ccccc1)S(=O)(=O)c1ccc2[nH]c(=O)c(=O)[nH]c2c1
  VDR inh = -10%

O=C(Nc1cccc2ccccc12)C(=O)C1C(=O)Nc2ccccc21 (stereo not given)
  VDR inh = -2%

Cc1c(C2(O)CCCCC2)[nH]c2ccc(C#N)cc12
  VDR inh = -7%

Cc1ccc(CC2S/C(=C(/C#N)C(=O)N3CCOCC3)N(c3ccccc3)C2=O)cc1 (stereo not given)
  VDR inh = 2%

CCS(=O)(=O)c1ccc2c(c1)N(S(=O)(=O)c1ccccc1)CC(C(=O)O)O2 (stereo not given)
  VDR inh = -23%

O=C(CN1CCN(S(=O)(=O)c2cccs2)CC1)N1CCCCC1
  VDR inh = 5%

CN(CC(=O)Nc1c(Cl)cccc1Cl)CC(=O)N(C)C1(C#N)CCCCC1
  VDR inh = 5%

COc1ccc(OC)c(C2=NS(=O)(=O)N(C)C(C(=O)Nc3cccc(C(C)=O)c3)=C2)c1
  VDR inh = ?

CC1C(=O)N2CCCc3cc(S(=O)(=O)Nc4ccccc4F)cc1c32 (stereo not given)
  VDR inh = -6%

CN(CCc1cn[nH]c1)Cc1nc(Cc2ccccc2F)no1
  VDR inh = 1%

O=C(Nc1cccs1)Nc1c(F)c(F)cc(F)c1F
  VDR inh = -12%

O=C(O)C1CSC2(CCN(Cc3ccccc3)CC2)N1 (stereo not given)
  VDR inh = -2%

CC(=O)c1cc2c(cc1NC(=O)CN(C)S(=O)(=O)c1cccs1)OCO2
  VDR inh = -7%

O=C(NCc1ccccc1Cl)c1ccc(S(=O)(=O)N2CCCC2)cc1
  VDR inh = -5%

COCCN1Cc2cccc(C(=O)N3CCN(c4cc(C)ccc4C)CC3)c2C1=O
  VDR inh = -13%

N#Cc1ccccc1NC(=O)CC1c2ccccc2Oc2ccccc21
  VDR inh = 9%

Cc1c(C(=O)Nc2ccc(-n3c(C)nc4ccccc4c3=O)cc2)cccc1[N+](=O)[O-]
  VDR inh = 17%

O=C1C=C(c2cccc3c2Oc2ccccc2S3)C[C@@H](c2ccc(Cl)cc2)C1
  VDR inh = -11%

O=C(CCn1cnnn1)Nc1ccc(Cl)c(Cl)c1
  VDR inh = -20%

C#CCNC(=O)C1=C[C@H](C(C)(C)C)C[C@H](OCc2ccc(CO)cc2)O1
  VDR inh = 2%

CCn1c(SCC(=O)NNC(=O)c2ccc(OC)cc2)nnc1-c1ccco1
  VDR inh = -1%

CCN(CC(=O)Nc1c(F)cccc1F)C(=O)c1cccc(-n2cnnn2)c1
  VDR inh = -11%

CCOC(=O)C1=NN(c2ccc(C)cc2)C2(S1)SC(C(C)=O)=C(C)N2c1ccccc1 (stereo not given)
  VDR inh = 4%

O=c1c(Oc2ccccc2Br)c(C(F)(F)F)oc2c(CN3CCCC3)c(O)ccc12
  VDR inh = 2%

C[N+]12CCCCC1C(COC(=O)c1ccc3c(c1)OCO3)CCC2 (stereo not given)
  VDR inh = -15%

CC(C)(C)c1cc(C(=O)O)c(CN2CCCCC2)o1
  VDR inh = 3%

Cc1cccc(/C=N/NC(=O)c2cc3c(s2)-c2ccccc2CC3)c1
  VDR inh = -9%

CC(C)c1ccc(C(=O)Nc2cccnc2)cc1
  VDR inh = -16%

O=C(Nc1ccc2c(c1)CCC2)C1CCN(c2c3c(nc4ncnn24)CCC3)CC1
  VDR inh = ?

COc1cccc(-c2nc(CS(=O)(=O)CC(=O)N3CCN(C4CCCCC4)CC3)c(C)o2)c1
  VDR inh = -21%

CCCNc1c(NS(=O)(=O)c2c(F)c(F)c(F)c(F)c2F)c(=O)oc2ccccc12
  VDR inh = -13%

CCc1cc2c(=O)n(CCCOC)c(SCC(=O)Nc3oc(C)c4c(C)n[nH]c(=O)c34)nc2s1
  VDR inh = 4%

CCOCCn1c(CN2CCN(CC)CC2)nc2c1c(=O)n(C)c(=O)n2C
  VDR inh = 6%

NC(N)=NCCC[C@H](NC(=O)[C@H](Cc1ccccc1)NC(=O)[C@@H]1CCCN1C(=O)[C@H](CO)NC(=O)[C@H](Cc1ccccc1)NC(=O)CNC(=O)[C@@H]1CCCN1C(=O)[C@@H]1CCCN1C(=O)[C@@H](N)CCCN=C(N)N)C(=O)O
  VDR inh = 2%

CC(Oc1ccc(-n2cnnn2)cc1)C(=O)O (stereo not given)
  VDR inh = 13%

CCOc1ccc(C(=O)N2CCC(c3nnc(-c4ccccc4OC)o3)CC2)cc1
  VDR inh = 5%

COc1ccc2nc(C)cc(SCC(=O)NNC(=O)COc3cccc4ccccc34)c2c1
  VDR inh = -17%

Cc1ccc(NC(=O)CSc2ccc(-c3ccccn3)nn2)c(C)c1
  VDR inh = -13%

CC(NC(=O)c1cc(Br)cs1)C1CCCO1 (stereo not given)
  VDR inh = -9%

Cc1ccc(-c2nc(-c3ccncc3)no2)c(Cl)c1
  VDR inh = 9%

Cc1ccc(C(C)NC(=O)c2ccc3c(c2)OCO3)cc1C (stereo not given)
  VDR inh = -12%

COc1cc(CNCCSc2nnnn2C)ccc1OCc1c(F)cccc1Cl
  VDR inh = -2%

CCOC(=O)c1nn(-c2cccc(OC)c2)c2nc(CC)c(C#N)c(=O)n12
  VDR inh = -2%

CC1CCCCN1C(=O)COC(=O)c1cc([N+](=O)[O-])ccc1N1CCOCC1 (stereo not given)
  VDR inh = -9%

COc1ccc(OC)c(NC(=O)CN2C(=O)CC(c3ccco3)Sc3ccccc32)c1 (stereo not given)
  VDR inh = 5%

O=C(Nc1ccc2nc(-c3cccs3)[nH]c2c1)c1ccco1
  VDR inh = 15%

CCOc1cc(S(=O)(=O)NCC2OCCc3ccccc32)c(OCC)cc1-n1cnnn1 (stereo not given)
  VDR inh = -4%

Cc1cc(N(CCO)Cc2ccccc2)n2nc(-c3ccc(C(C)(C)C)cc3)nc2n1
  VDR inh = -5%

COc1ccc(C(=O)NCC(c2ccc(N(C)C)cc2)N2CCc3ccccc32)cc1 (stereo not given)
  VDR inh = 5%

CCSc1nnc(NC(=O)C2CCN(S(=O)(=O)c3ccccc3C(F)(F)F)CC2)s1
  VDR inh = 5%

O=C1C(Cl)=C(NS(=O)(=O)c2ccc([N+](=O)[O-])cc2)C(=O)c2ccccc21
  VDR inh = 22µM*

Cc1ccc(C(=O)NC(=S)Nc2ccc(Oc3ccc(Cl)cc3)cc2)cc1
  VDR inh = 8%

CSCCC(NC(=O)c1ccccc1)C(=O)NCCCn1nc(C)cc1C (stereo not given)
  VDR inh = 7%

CC(=O)c1cccc(NC(=O)N2CCCC(C(=O)c3cc(F)ccc3F)C2)c1 (stereo not given)
  VDR inh = -5%

COc1cc(/C=C/C(=O)OCC(=O)NC(=O)NC23CC4CC(CC(C4)C2)C3)ccc1OCC#N
  VDR inh = -6%

O=C(NCc1ccco1)C1CC(c2c(Cl)cccc2Cl)=NO1 (stereo not given)
  VDR inh = -28%

CCN(c1cccc(C)c1)C(CNS(=O)(=O)c1ccccc1)c1ccccc1 (stereo not given)
  VDR inh = -7%

COc1ccc2c(c1OC)C(=O)N1C2SC(C)(C)[C@H]1C(=O)NC(C)C (stereo not given in full)
  VDR inh = -6%

CCN(CC)CC(O)COc1ccc2c(c1)OCO2 (stereo not given)
  VDR inh = 6%

CCC(C)N1CC(=O)N2C(c3ccc(OC)cc3OC)c3[nH]c4ccccc4c3C[C@H]2C1=O (stereo not given in full)
  VDR inh = -15%

CCSc1cnnc2ccccc12
  VDR inh = -19%

O=C(NCCOc1ccc(Cl)cc1)c1ccco1
  VDR inh = 0%

O=C(Nc1ccc(S(=O)(=O)N2CCc3ccccc3C2)cc1)C1CCCO1 (stereo not given)
  VDR inh = -11%

COC(=O)c1ccc(NC(=O)[C@H](C)NC(N)=O)cc1
  VDR inh = -7%

Cc1ccc(S(=O)(=O)CC(=O)c2ccccc2)cc1
  VDR inh = 4%

Some values from above:
VDR inh with `O=C(Nc1ccc(S(=O)(=O)N2CCc3ccccc3C2)cc1)C1CCCO1` (stereo not given) = -11%
VDR inh with `CCSc1cnnc2ccccc12` = -19%
VDR inh with `CCC(C)N1CC(=O)N2C(c3ccc(OC)cc3OC)c3[nH]c4ccccc4c3C[C@H]2C1=O` (stereo not given in full) = -15%

Two records drawn at random from the list so far, as already listed:
Cc1ccc(S(=O)(=O)CC(=O)c2ccccc2)cc1
  VDR inh = 4%

COC(=O)c1ccc(NC(=O)[C@H](C)NC(N)=O)cc1
  VDR inh = -7%
